# Screening results deposited in PubChem BioAssay by several laboratories.
# LANA-H2A inh: blockers of LANA interaction with H2A/H2B – biochemical, FP readout, HTS, primary screen; inhibition, % (concentration not given with the values); cell-free LANA-H2A/H2B peptide, fluorescence polarization; Protein LANA1 (Human herpesvirus 8 type P (isolate GK18)), Q9QR71; hit rate 0.6% among 320,000; in the data active means inhibition mostly above about 10%, no sharp cut-off; inactive means mostly below about 6.7%;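 further: stock transfer was 7.5 nL into about 10 µL; 0% = median of vehicle wells and 100% = median of positive control wells; one replicate is shown; the record names a cut of 25% in any replicate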
# B2AR ag: beta2AR agonists driving receptor internalization, primary screen, cell-based, FAP fluorogen, flow cytometry; Beta-2 adrenergic receptor (Homo sapiens), P07550; Am2.2-beta2AR cells; reference of the scale not given here; response, % (concentration not given with the values); hit rate 0.43% among 340,000;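 active means response above a set limit, near 3 SD of response in nonfluorescent compounds, cut at about 42% in these data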;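 further: stock transfer was 100 nL into about 11 µL; a reference agonist was the positive control; negative values mostly stem from fluorescent compounds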
# Target sequence (P07550 whole entry, looked up): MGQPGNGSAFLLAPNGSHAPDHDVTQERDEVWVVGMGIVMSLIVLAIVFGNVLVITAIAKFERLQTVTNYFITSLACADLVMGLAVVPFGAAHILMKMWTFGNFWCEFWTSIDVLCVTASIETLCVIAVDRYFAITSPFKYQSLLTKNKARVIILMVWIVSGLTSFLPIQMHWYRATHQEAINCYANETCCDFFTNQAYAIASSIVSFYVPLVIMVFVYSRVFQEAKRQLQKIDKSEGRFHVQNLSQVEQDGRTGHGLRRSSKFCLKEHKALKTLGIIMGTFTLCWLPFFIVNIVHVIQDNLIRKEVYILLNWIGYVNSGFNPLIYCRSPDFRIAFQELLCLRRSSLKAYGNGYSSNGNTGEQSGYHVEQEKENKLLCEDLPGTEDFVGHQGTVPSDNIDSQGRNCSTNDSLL
# RanGTP-Impb inh: inhibitors of RanGTP-importin-beta interaction, primary screen, biochemical, FRET, CFP-Ran, YFP-importin-beta, homogeneous | inhibition, % (test concentration not listed) | cell-free CFP-Ran/YFP-importin-beta FRET ratio | AID 2216, 2009 | hit rate 1.1% among 300,000;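 active means most replicates above 15%; inconclusive means exactly half above 15%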;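 further: 0% = DMSO wells and 100% = Ran loaded with GDP instead of GTP; wells of about 40 µL received 100 nL stock; the first replicate is given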
# ALR inh: inhibitors of human ALR sulfhydryl oxidase, primary screen, biochemical, H2O2 detection, HRP-luminol luminescence, single point; FAD-linked sulfhydryl oxidase ALR (Homo sapiens), P55789; purified ALR, DTT oxidation; inhibition, % (concentration not given with the values); hit rate 3.8% among 290,000; AID 485317, 2010;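 active means mean and each replicate at 75% or more; inconclusive means only one of the two met; inactive means neither met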;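 further: stock transfer was 7.5 nL into about 7.5 µL; 0% = neutral wells and 100% = wells with inactivated enzyme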
# Target sequence (P55789 whole entry, looked up): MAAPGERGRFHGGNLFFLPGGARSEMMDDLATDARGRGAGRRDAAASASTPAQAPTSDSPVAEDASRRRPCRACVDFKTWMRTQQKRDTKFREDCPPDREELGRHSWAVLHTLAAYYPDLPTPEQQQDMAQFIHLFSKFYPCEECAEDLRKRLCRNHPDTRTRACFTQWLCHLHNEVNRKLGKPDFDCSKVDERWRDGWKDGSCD
# Calb FLC: C. albicans growth inhibition with fluconazole, primary screen, CaCi-2 strain, Alamar Blue fluorescence; hit rate 0.57% among 300,000; C. albicans CaCi-2 (fluconazole-resistant clinical isolate) + fluconazole, 48 h; growth inhibition, % (test concentration not listed);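 active means most replicates above 75%; inconclusive means exactly half above 75%; inactive means most below 75%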;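 further: all wells also contain fluconazole at 8 µg/ml as a sub-toxic cotreatment; 0% = median of DMSO wells and 100% = median of geldanamycin control wells; wells of about 8 µL received 7.5 nL stock; the first replicate is given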
# HNF4A DNA FP: change in binding of human HNF4A to DNA, primary screen, biochemical, fluorescence polarization, FITC-DNA; Hepatocyte nuclear factor 4-alpha (Homo sapiens), P41235; 1 h; activity change, % at 10 µM; hit rate 0.3% among 360,000; AID 1224865, 2016; in the data active means activity change above about 30%, passing the limit was not always enough;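 further: controls were the assay level and a saturating level of protein; the project sought stronger binding though the title names inhibitors; some compounds called inactive have numbers as strong as hits; positive values seem to mean higher polarization but the record does not say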
# Vif TR-FRET: inhibitors of Vif binding to APOBEC3G peptide, primary screen, biochemical, TR-FRET, GST-Vif 1-94, biotin-A3G peptide, dose response retest (AID 1117319); Virion infectivity factor (Human immunodeficiency virus type 1 group M subtype B (isolate …; TR-FRET GST-Vif / biotin-A3G peptide binding; higher % means a stronger effect; test concentration not given here; strong numbers were not always called active; inhibition, %, or IC50 in µM where a hit was titrated; hit rate 0.57% among 260,000;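 active means above the screen mean plus three standard deviations and confirmed in dose response; inconclusive means results disagree or hit not tested in dose response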;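 further: Vif residues 1-94 fused to GST binding biotinylated APOBEC3G peptide 110-148; 0% = full assay without inhibitor and 100% = GST in place of GST-Vif; retest series ran down from 100 µM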
# Active calls of the source: *; ? = inconclusive; . = not tested or not shown; & = joins results of further samples; ! = not active in a repeat.
SMILES,LANA-H2A inh,B2AR ag,RanGTP-Impb inh,ALR inh,Calb FLC,HNF4A DNA FP,Vif TR-FRET
COc1cccc(SCc2noc(C(=O)NCCN(C)C)c2C(=O)NCCN(C)C)c1,0.5,0,0.1,-8,1,2.5,.
O=c1[nH]c(CN2CCN(c3ccccc3O)CC2)nc2scc(-c3ccccc3Cl)c12,-6.7,11,-2.2,7,4,1.8,.
COc1cc(OC)c(NC(=O)Nc2ccc(OC)c(OC)c2)cc1Cl,2.1,7,5.6,7,1,1.7,?
COc1ccc(Cl)cc1N1C(=NC(=O)C2CCCO2)SC2CS(=O)(=O)CC21 (stereo not given),-2.0,2,0.8,4,-6,-4.4,5%
NC(=O)c1c(N)sc(=S)n1-c1ccccc1,-1.8,-5,2.4,53,6,0.0,-3%
COc1ccccc1-c1ocnc1C(=O)N1CCN(C(=O)C(c2ccccc2)c2ccccc2)CC1,-3.8,8,3.3,25,-10,0.7,.
CC(=O)c1c(C)c2c(n1CCN(C)C)CCCC2,-1.7,-4,-1.5,-9,-1,-2.0,2%
CC(C(=O)NCc1ccc2c(c1)OCO2)N(c1ccccc1)S(C)(=O)=O (stereo not given),-3.7,1,?,-7,-16,-0.5,-2%
O=C1CCCC2=C1C1(CCCCC1)N=C(Nc1nc3ccccc3o1)N2,-3.4,-1,-1.2,.,-13,-8.6,-3%
O=C(NNC(=O)c1ccc2c(c1)OCO2)NC12CC3CC(CC(C3)C1)C2,0.9,-1,-4.2,.,-23,4.1,.
Cc1ccc(C(=O)COC(=O)CNC(=O)Cc2ccccc2)cc1[N+](=O)[O-],1.3,7,1.5,-24,-5,1.0,76%
CCC(=O)Nc1cccc(NC(=O)CSc2nnc(C(C)C)n2CC)c1,3.9,-4,?,-5,.,1.7,31%
Cc1cc(NC(=O)COC(=O)COc2ccc3c4c(c(=O)oc3c2)CCC4)no1,6.8,4,-1.8,0,-12,0.9,-13%
O=c1nc(-c2ccccc2)n(-c2ccc(Cl)cc2)[nH]1,-2.3,-1,-3.7,.,3,1.5,.
O=C(O)CN1C(=O)/C(=C/c2ccccc2Cl)Oc2ccccc21,1.7,2,-0.7,4,-12,-0.6,7%
COCCCn1c(SCCc2ccccc2)nc2cc(OC)c(OC)cc2c1=N,-4.1,6,-2.1,2,27,-1.2,9%
COc1ccc(C(=O)C2C(c3ccc(-c4ccccc4[N+](=O)[O-])o3)NC(=O)NC2(O)C(F)(F)F)cc1 (stereo not given),7.8,11,2.2,-10,-2,2.9,20%
COC(=O)c1cccc(NS(C)(=O)=O)c1C,1.9,7,?,-7,-5,1.1,-4%
NC(=O)c1ccccc1N/C=C1\CCCCC1=O,-0.5,-17,3.5,4,5,0.6,17%
C#CCNc1c2c(nc3ncnn13)CC(C)CC2 (stereo not given),-7.2,1,-0.2,0,12,-1.7,6%
CCN1CCCc2cc(CN(CCN3CCOCC3)C(=S)Nc3cccc(OC)c3)ccc21,-1.8,3,-4.3,87*,-10,2.2,.
CC(C)Cn1nc(C(=O)N2CCc3ccccc32)c2ccccc2c1=O,.,0,.,.,.,-4.4,2%
CC1=C/C(=C\C=C(C#N)C#N)N(C)c2ccccc21,-7.6,-73,-2.6,17,5,71*,.
CCC1SC2=NC(C)=C(C(=O)OC)C(c3cccs3)N2C1=O (stereo not given),0.9,8,7.6,-3,2,2.5,3%
CNC(=S)N1N=C(c2ccc(OC)cc2)CC1c1ccc(Cl)cc1Cl (stereo not given),1.6,-3,2.2,-11,3,3.2,-15%
O=C(CCc1ccc(Oc2cc([N+](=O)[O-])cc([N+](=O)[O-])c2)cc1)N1CCCCCC1,1.9,2,10,-105,-9,0.7,17%
COc1ccc([N+](=O)[O-])cc1C(=O)NCCOc1ccc(Cl)cc1,-4.4,-5,0.6,-3,0,-0.8,-8%
CCOC(=O)c1c(C)[nH]c(C)c1S(=O)(=O)NCCc1ccc(SC)cc1,11,0,5.0,-10,25,-1.9,.
O=C(N1CCCCC1)N1CCN(S(=O)(=O)c2cccc([N+](=O)[O-])c2)CC1,0.9,4,-0.5,-1,3,-3.0,-6%
Cc1cccc(S(=O)(=O)Nc2nc3ccccc3nc2NCc2ccc3c(c2)OCO3)c1,-0.9,-17,-0.2,-4,0,1.6,.

# A second format for part of the listing above:
# Each structure is followed by: LANA-H2A inh, B2AR ag, RanGTP-Impb inh, ALR inh, Calb FLC, HNF4A DNA FP, Vif TR-FRET
> C#CCNc1c2c(nc3ncnn13)CC(C)CC2 (stereo not given)
  -7.2, 1, -0.2, 0, 12, -1.7, 6%
> CCN1CCCc2cc(CN(CCN3CCOCC3)C(=S)Nc3cccc(OC)c3)ccc21
  -1.8, 3, -4.3, 87*, -10, 2.2, .
> CC(C)Cn1nc(C(=O)N2CCc3ccccc32)c2ccccc2c1=O
  ., 0, ., ., ., -4.4, 2%

# Continued:
SMILES,LANA-H2A inh,B2AR ag,RanGTP-Impb inh,ALR inh,Calb FLC,HNF4A DNA FP,Vif TR-FRET
CCn1c(SCC(=O)N2CCc3ccccc3C2)nc2sc(C)c(C)c2c1=O,-1.2,4,3.8,-7,5,1.9,.
CCN(CC)S(=O)(=O)c1ccc(Cl)c(NC(=O)COC(=O)c2cc(-c3ccccc3Cl)nc3ccccc23)c1,1.4,2,-5.4,5,8,-0.3,10%
COc1c(C=O)cc2c3c1CCCN3CCC2,0.3,3,2.0,.,-1,2.8,4%
C=CCOc1ccc(CN(C)CC(=O)Nc2ccccc2[N+](=O)[O-])cc1,-9.1,-2,-2.2,-35,-16,-1.5,8%
O=C(N/N=C/c1ccccn1)c1cccc([N+](=O)[O-])c1,2.3,5,-2.7,-1,-8,1.4,8%
CC(C)(C)OC(=O)CNC(=O)c1nc[nH]c1C(=O)NCC(=O)OC(C)(C)C,-2.7,-5,-8.8,1,-3,-2.5,-1%
Cc1cc(NS(=O)(=O)c2ccc(NC(=O)/C=C/c3ccc(C)o3)cc2)nc(C)n1,-1.1,2,-1.7,16,-7,-1.2,15%
CNC(=O)C1CCCN1S(=O)(=O)c1ccc(OC)cc1 (stereo not given),3.7,3,1.0,2,-4,-6.0,10%
COc1cc(C(=O)Nc2ccc(N3CCCS3(=O)=O)cc2)c([N+](=O)[O-])cc1OC,-1.5,9,1.0,-17,-4,9.0,48%
CC(C)C[C@@H](CSc1ccccc1)N1CCN(CC(C)C)CCC1=O,8.5,1,5.8,4,-5,-1.9,.
N#CC1=CN(Cc2ccccc2)C=C(/C=N/Nc2ccccc2)C1,-0.6,5,5.3,-58,-32,11,.
CCOC(=O)c1cc(-c2ccccc2)sc1NC(=O)C(C)C,0.5,-8,1.2,-7,-6,-3.2,.
COC(=O)COc1cccc(NC(=O)c2cc(OC)cc(OC)c2)c1,-1.7,10,0.0,-7,7,0.1,1%
CCCC(CCC(=O)Nc1cccc([N+](=O)[O-])c1)C(=O)O (stereo not given),1.2,-3,0.4,0,3,-0.2,7%
Cc1ccc(-c2nnc(N3CCOCC3)c3ccccc23)cc1S(N)(=O)=O,1.1,11,3.0,36,5,0.4,.
CC(=O)/C(N=Nc1ccc(C(=O)O)cc1)=C(\C)O,0.4,-3,-1.8,-5,4,-0.5,-3%
COc1cccc(CNC(=O)COC(=O)C2CCN(c3ccc(C(F)(F)F)cn3)CC2)c1,0.3,-3,.,.,.,1.2,?
COc1ccc(-n2c(N)c(C#N)c3ccc([N+](=O)[O-])cc3c2=O)cc1,0.6,-3,2.3,-10,11,-3.6,20%
Nc1ccc(-n2nncc2-c2ccccc2)cc1,-3.0,-7,-0.5,2,1,2.7,0%
CC(C)/C(=N/Nc1ccccc1[N+](=O)[O-])c1ccccc1,4.7,2,?,-6,1,2.1,4%
CNC(=O)COc1coc(CN2CCN(c3ccccc3OC)CC2)cc1=O,-0.4,3,1.5,12,-9,0.8,.
c1cnc2c(c1)ccc1cccnc12,21*!,-3&-8,-1.3&6.6,.,110*,-0.8&-1.7,?
CCN(c1ccc(OC)cc1)S(=O)(=O)c1csc(C(=O)N2CCCC2)c1,2.2,-12,0.1,-3,-5,3.4,.
Cc1ccc(Cl)cc1NC(=S)N(C)N,-5.9,0,-0.5,-2,4,-2.7,.
COc1ccc(C2=CC(=O)CC(c3ccc(F)cc3)C2)cn1 (stereo not given),0.5,9,6.3,.,13,1.4,.
COCC(=O)N(Cc1nc2sc(C)c(C)c2c(=O)[nH]1)C1CCCCC1,1.9,-11,-0.2,-6,4,4.4,19%
CC(C)c1nc(SCC(=O)N2CCN(c3ccccc3)CC2)c2c(=O)n(C)c(=O)n(C)c2n1,.,26,-2.1,.,3,2.6,2%
Cc1ccc(Cl)cc1NS(=O)(=O)c1cc2[nH]c(=O)c(=O)[nH]c2cc1C,-1.0,5,5.9,4,-6,2.9,.
COCCNC(=O)/C(C#N)=C\c1ccc(CNS(=O)(=O)c2ccc(C)cc2)o1,-2.3,0,0.4,-8,7,2.1,-6%
Cc1ccc(NC2OC(CO)C(O)C(O)C2O)cc1 (stereo not given),5.4,-5,2.0,-50,-1,-2.8,21%
CCOC(=O)COn1c(=O)c(-c2ccc(Cl)cc2)[n+]([O-])c2ccccc21,-5.2,7,3.9,-5,10,0.8,47%
Cc1ccc(O)c(N=Nc2ccc(S(=O)(=O)N3CCOCC3)cc2)c1,-1.1,4,0.2,-2,28,-0.1,?
CCOc1ccccc1C(=O)N1c2ccccc2Sc2ccccc21,-4.1,6,2.8,-3,-15,0.3,5%
CC(=O)c1cccc(N(C(=O)c2ccco2)C(C(=O)NC2CCCCC2)c2ccc(C)o2)c1 (stereo not given),-2.6,6,2.5,4,-19,0.3,-2%
Cc1cc(NC(=O)CSCc2ccc([N+](=O)[O-])cc2)no1,2.9,-1,2.4,.,6,1.8,-4%
c1ccc2c(c1)OC(CCCN1CCCCC1)c1ccccc1S2 (stereo not given),1.1,16,-0.9,29,8,-0.4,.
C=CCNC(=S)Nc1cccc([N+](=O)[O-])c1,0.0,-7,4.4,40,.,-3.0,0%
CC1(C)CC(=O)C=C(NC2CCCCCC2)C1,3.9,-2,3.3,16,-13,0.5,2%
O=C(NCCN1CCCC1)c1ccc(Cn2c(=S)[nH]c3ccc(Br)cc3c2=O)cc1,3.7,7,4.5,55,0,8.3,0%
O=C(Nc1ccccc1C(=O)N1CCCC1)c1ccc(Cl)cc1Cl,18*,-3,4.1,.,1,2.3,.

# 4 entries drawn at random from those above, as already listed:
SMILES,LANA-H2A inh,B2AR ag,RanGTP-Impb inh,ALR inh,Calb FLC,HNF4A DNA FP,Vif TR-FRET
C=CCNC(=S)Nc1cccc([N+](=O)[O-])c1,0.0,-7,4.4,40,.,-3.0,0%
Cc1ccc(O)c(N=Nc2ccc(S(=O)(=O)N3CCOCC3)cc2)c1,-1.1,4,0.2,-2,28,-0.1,?
c1ccc2c(c1)OC(CCCN1CCCCC1)c1ccccc1S2 (stereo not given),1.1,16,-0.9,29,8,-0.4,.
O=C(Nc1ccccc1C(=O)N1CCCC1)c1ccc(Cl)cc1Cl,18*,-3,4.1,.,1,2.3,.
